Compound activity from PubChem.
MT1-MMP reporter – MT1-MMP gene expression reporter suppression – cell-based, luciferase reporter, luminescence (AID 618) | MT1-MMP promoter luciferase reporter cells, luminescence | 87,000 compounds, 0.62% hits | calls from a first round at 10 µM; hits with a dose series show EC50 in µM;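 active means over half of the reporter light lost at 10 µM or EC50 under 50 µM; inactive means the rest and hits that failed the dose series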;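 further: actives suppress MT1-MMP promoter-driven transcription so potencies describe inhibitors; HT1080 fibrosarcoma cells; overnight exposure; toxic or luciferase-blocking compounds were not removed from the actives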
WNV NS2B-NS3 inh – inhibitors of West Nile virus NS2B-NS3 protease; P06935; WNV NS2B-NS3 protease, fluorogenic substrate Ex360/Em465; stronger effect = lower value; z-score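 (tested at a level between 10 and 100 µM)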; 65,000 compounds, 0.18% hits; AID 577;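 active means z-score at -3 or under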;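 further: score is relative to mean and spread of the compound wells of a plate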
Target sequence (P06935 1371-1501 limits assumed): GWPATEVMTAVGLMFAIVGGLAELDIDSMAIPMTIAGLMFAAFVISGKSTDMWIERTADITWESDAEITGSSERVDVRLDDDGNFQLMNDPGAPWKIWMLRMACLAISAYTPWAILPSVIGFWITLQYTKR
Target sequence (P06935 1502-1679 limits assumed): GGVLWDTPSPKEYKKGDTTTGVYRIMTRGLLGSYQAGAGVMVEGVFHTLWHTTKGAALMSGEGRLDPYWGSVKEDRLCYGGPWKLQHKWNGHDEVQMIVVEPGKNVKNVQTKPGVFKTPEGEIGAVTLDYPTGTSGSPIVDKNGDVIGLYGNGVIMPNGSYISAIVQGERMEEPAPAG
Hsc70 – Hsc70 inhibitors, probe displacement, primary screen, biochemical, fluorescence polarization (AID 568). one-dose displacement, % at 20 µM; IC50 in µM for titrated hits. Hsc70 fluorescence polarization, probe displacement; higher % means a stronger effect; strong numbers were not always called active. 83,000 tested, under 10 active;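 active means displacement above 50% without optical interference and an IC50 on retest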;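 further: ATPase domain with a fluorescein-tagged ATP probe; 0% = vehicle and 100% = excess ADP; read after one hour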
An asterisk follows results filed as active; i = inactive; · = no result given. This is a subset (hit frequency here may not be typical).

Screens in order – MT1-MMP reporter | WNV NS2B-NS3 inh | Hsc70
CC(=O)N1CCN(C2=Nc3cccc4cccc2c34)CC1
    i | 0.78 | 18%
COc1cccc(CNn2c(-c3cccc(C)c3)nc3ccccc3c2=O)c1
    i | · | 7.5%
O=C(COc1cc(Cl)c(Cl)cc1Cl)NC(=O)NC1CCCC1
    i | · | -3.4%
O=C(Nc1ccc(NC(=O)C2CC2)nc1)c1ccco1
    i | 0.07 | -5.2%
Cc1cc(C)n(C(=O)CNC(=O)c2cccs2)n1
    i | 0.11 | 5.0%
Cc1c(Cl)cccc1NC(=O)CC(C(=O)O)C1CCCO1 (stereo unspecified)
    i | 1.1 | -4.1%
Cc1cccc(NC(=O)c2ccc3ccccc3n2)c1C
    i | · | 3.4%
O=C(NCc1ccccn1)c1c(O)c2c([nH]c1=O)CCCC2
    i | -0.98 | -2.7%
CC(C)CCNC(=O)CCNS(=O)(=O)c1ccc(Cl)cc1
    i | 0.28 | -5.2%
O=C(NC1CCCCC1)c1ccc(S(=O)(=O)N2CCOCC2)cc1
    i | -0.9 | 6.9%
COc1ccc(OC)c(S(=O)(=O)N2c3cc(F)ccc3CCC2C)c1 (stereo unspecified)
    i | -0.01 | 1.9%
COc1cccc(C2C(C(=O)c3cccs3)=C(O)C(=O)N2CCCn2ccnc2)c1OC (stereo unspecified)
    i | 0.44 | -4.6%
Cc1noc(C)c1COC(=O)CCC(=O)c1ccc(F)cc1
    i | 1.3 | 2.2%
COc1ccc(C)cc1S(=O)(=O)Nc1cccc(SC)c1
    i | 0.01 | 4.1%
CCS(=O)(=O)NCC(c1cccnc1)N1CCN(c2ccc(F)cc2)CC1 (stereo unspecified)
    i | -0.28 | 14%
Cc1cc(C(=O)N2CCOCC2)n(-c2ccccc2)n1
    i | -0.1 | 3.0%
COc1cc(/C=N/n2cnnc2)ccc1OCc1ccc(C)cc1
    i | · | 8.3%
CCOc1ccc(Nc2ncnc3c2cnn3-c2ccccc2)cc1
    i | 0.04 | -6.7%
CC1CN(Cc2ccc(Cl)cc2Cl)CC(C)O1 (stereo unspecified)
    i | · | 1.7%
CCC1(CC)Nc2ccccc2C(=O)N1c1ccc(NC(C)=O)cc1
    i | 1.6 | 4.3%
Cc1ccc(NC(=O)c2cc(C)on2)cc1
    i | -0.18 | -1.9%
Cc1cccc(N(C(=O)CCC(=O)Nc2cccnc2)C(C(=O)NC2CCCC2)c2ccncc2)c1 (stereo unspecified)
    i | · | 0.7%
Cc1cc(SCC(=O)Nc2ccccc2)nc(C)n1
    i | -1.5 | 2.4%
CCCc1nnc(SCC(=O)O)n1/N=C/c1ccc2c(c1)OCO2
    i | -1.2 | 1.6%
Cc1cc(-c2ccccc2)nc(N2CCC(C(=O)NC34CC5CC(CC(C5)C3)C4)CC2)n1
    i | · | -3.3%
CCOC(=O)c1ccc(NC(=O)Nc2ccn(C)n2)cc1
    i | -0.76 | 2.0%
CC#CCN(CC#CC)S(=O)(=O)c1ccc(S(=O)(=O)N2CCOCC2)cc1
    i | -0.03 | -1.9%
O=c1/c(=C/c2ccco2)sc2n1CN(c1ccccc1)CN=2
    i | · | 0.7%
Cc1nc2c3ccccc3n(CC(=O)c3ccc(F)cc3)c(=O)n2n1
    i | -0.27 | 6.0%
Cc1ccc(S(=O)(=O)c2c(N)n(CCC(C)C)c3nc4ccccc4nc23)cc1
    i | · | 1.6%
O=C(O)C1OC(C(=O)O)C2C1C(F)(F)C2(F)F (stereo unspecified)
    i | 1.2 | 1.9%
CC(Sc1nc2ccccc2[nH]1)C(=O)Nc1ccc2c(c1)OCCO2 (stereo unspecified)
    i | · | -2.2%
Cc1ccc(S(=O)(=O)Nc2ccc(NC(=O)CN3CCCCC3)c(Cl)c2)cc1
    i | · | 1.5%
CCOC(=O)c1sc2nc(N3CCOCC3)c3c(c2c1N)CCC3
    i | -1.2 | -0.4%
COc1ccccc1N1CCN(C(=O)C2CCN(S(=O)(=O)N3CCOCC3)CC2)CC1
    i | -0.32 | -1.6%
COc1ccccc1CO/N=C/c1cccn1-c1nccc(N(C)C)c1C#N
    i | · | 7.3%
O=C1CN(C(=O)COC(=O)C2=COCCO2)c2ccccc2N1
    i | -0.58 | 2.2%
O=C(CSc1ccc2nnc(-c3cccs3)n2n1)N1CCOCC1
    i | 0.83 | 2.6%
Cc1ccc2nc(Nc3nc(=O)c4ccccc4n3C)nc(C)c2c1
    i | 0.88 | -38%
O=C(CN1CCCC1)Nc1c2c(nc3ccccc13)N(Cc1ccccc1)CC2
    i | · | 1.3%
CCOC(=O)c1ccc2[nH]c3c(c2c1)CN(C)CC3
    i | -0.72 | 5.9%
COc1ccccc1N1CCN(C(=O)C(C)N(c2ccc(C)c(C)c2)S(C)(=O)=O)CC1 (stereo unspecified)
    i | 1.4 | 0.3%
Cc1sc2ncnc(-n3cnc4ccccc43)c2c1C
    i | 0.11 | -2.8%
CCCOC(=O)c1ccc(Oc2c(-c3ccc(OC)cc3O)n[nH]c2C)cc1
    i | 1.4 | 4.4%
CC1(C)CC(=O)c2c(n(-c3cccc4ccccc34)ccc2=O)C1
    i | · | 1.7%
O=C1CC(Cc2ccccc2)C(=O)N1c1ccc(Cl)cn1 (stereo unspecified)
    i | -1.5 | -3.1%
CC1CCc2nn(CC(=O)NCCCN3CCOCC3)cc2C1 (stereo unspecified)
    i | 1.1 | 0.1%
CC(C)CNC(=O)CSc1nnc(-c2cccc(S(=O)(=O)N3CCCCC3)c2)o1
    i | · | -0.5%
CCOC(=O)CC1C(=O)NC2CCCCC2N1C(=O)Nc1ccc(Cl)cc1 (stereo unspecified)
    i | -0.02 | -0.7%
Cn1cc(CNC(=O)C2CCCCC2)cn1
    i | 0.75 | 6.0%
CCOc1cc(C(=O)NCC(C)CN(C)C)cc(OCC)c1OCC (stereo unspecified)
    i | -0.51 | 4.9%
Cc1cccc(CCNC(=O)C2CCN(S(=O)(=O)c3c(C)nn(C)c3C)CC2)c1
    i | 1.7 | -5.9%
CN(C)CCC1Sc2ccccc2Oc2ccccc21 (stereo unspecified)
    i | · | 2.0%
CCc1nnc(NC(=O)CSc2nnc(Cc3ccccc3)n2-c2ccccc2)s1
    i | -1.2 | 0.5%
CCOC(=O)N1CCN(C(=O)CSc2nnc(-c3c[nH]c4ccccc34)n2CCOC)CC1
    i | -0.31 | 0.8%
CCOC(=O)C(C)Sc1nc2c(c(=O)[nH]c(=O)n2C)n1C/C=C(/C)Cl (stereo unspecified)
    i | 0.32 | -2.6%
CC1=C(C(=O)OCCOc2ccccc2)C(c2ccc(C)o2)C2=C(CC(C)(C)CC2=O)N1 (stereo unspecified)
    i | -0.22 | 6.1%
O=C(CCn1c(=O)oc2ccccc21)NCCN1CCc2ccccc2C1
    i | 0.88 | 2.9%
O=C(NCCCN1CCOCC1)c1ccc(CS(=O)(=O)Cc2ccccc2Cl)o1
    i | 1.3 | -6.4%
CCOC(=O)CSc1nc2ccccc2n1CC(=O)N1CCN(c2ccccc2)CC1
    i | 0.23 | 0.2%

Continuation.
Screens in order – MT1-MMP reporter | WNV NS2B-NS3 inh | Hsc70
Cc1cc(C)c(S(=O)(=O)N(CC(=O)O)CC(=O)O)c(C)c1
    i | · | -0.1%
NC(=O)c1ccsc1NC(=O)c1nc(-c2ccccc2)n(-c2ccccc2)n1
    i | -0.21 | 0.9%
O=C(CSc1nnc(CNC(=O)c2c(F)cccc2Cl)o1)c1ccccc1
    i | 0.22 | 4.5%
COc1cc(OC)cc(-c2nnc(SCC(=O)N(Cc3ccccc3)C(C)(C)C)o2)c1
    i | 0.62 | -0.2%
Cn1c(CCN2CCCCC2)nc2cc(NS(=O)(=O)c3ccccc3)ccc21
    i | -0.27 | -9.8%
C=C(C)CSC1=C(C#N)C(c2ccccc2)CC(=O)N1 (stereo unspecified)
    i | -0.23 | -1.6%
Cc1cccc(-c2noc(CCCC(=O)Nc3cccnc3)n2)c1
    i | 0.98 | -2.9%
C/C(N)=C(/C#N)C(=O)CSc1ncnc2ccccc12
    i | -0.16 | -6.1%
COC(=O)c1cc(NC(=O)CC2C(=O)NCCN2C(=O)c2ccc(F)cc2)cc(C(=O)OC)c1 (stereo unspecified)
    i | · | -2.7%
O=C(C1CCCCN1S(=O)(=O)c1ccccc1)N1CCN(C(c2ccccc2)c2ccccc2)CC1 (stereo unspecified)
    i | · | -0.9%
Cn1c(SCC(=O)Nc2ccc3cn[nH]c3c2)nnc1-c1cnccn1
    i | 1 | 2.0%
O=C(NCCc1nc2ccccc2[nH]1)Nc1ccccc1
    i | 0.58 | -4.3%
CCOC(=O)CSc1nc2ccccc2c(=O)n1CC
    i | 0.34 | -2.5%
CCN(CC)C(=O)c1sc(NC(=O)c2ccc3c(c2)OCO3)c(C#N)c1C
    i | · | 7.8%
CC1CCCCC1NC(=O)c1ccc(N2CCCC2=O)cc1 (stereo unspecified)
    i | 1.1 | 2.6%
Cc1cc2c(cc1C)NC(c1nc3ccccc3[nH]1)C1=C(CC(C)(C)CC1=O)N2 (stereo unspecified)
    i | · | 3.6%
Cc1nc2ccccc2n1CCc1nc2c3ccccc3nc(SCC(=O)NCc3ccco3)n2n1
    i | 1.5 | -5.9%
CN1CCN(c2ccccc2NC(=O)c2ccc(Br)o2)CC1
    i | -1.3 | 1.9%
Cc1cc(=O)oc2cc(OCC#N)ccc12
    i | -0.02 | -2.2%
Cc1ccccc1Cn1c(-c2cncs2)nc2ccccc21
    i | 0.73 | 6.2%
COCCCN(C(C)=O)c1nc(-c2ccccc2)cs1
    i | -0.64 | 8.5%
COc1ccc2c(c1OC)C(=O)N(c1cccc(C(F)(F)F)c1)C2
    i | -0.02 | -1.4%
O=C(Nc1nnc(-c2ccc(Cl)cc2)o1)Nc1ccccc1Cl
    i | · | -0.4%
O=C(CN(C(=O)CCC(=O)Nc1nccs1)c1ccc(F)cc1)NCc1ccco1
    i | -0.64 | -3.6%
CC1CN=C(N(Cc2ccccc2)C(=O)Nc2ccccc2)S1 (stereo unspecified)
    i | · | -1.8%
O=C(Nc1ccccc1N1CCOCC1)c1cnccn1
    i | · | -0.2%
CCSc1nnc(NC(=O)Cc2ccc(OC)c(OC)c2)s1
    i | · | 0.5%
N#CC(c1ccc(F)cc1)c1ccc(C(=O)c2ccccc2)cc1 (stereo unspecified)
    i | · | 2.7%
COc1cccc(OCCCCCCN2CCOCC2)c1
    i | · | 5.9%
COc1ccc2c(c1OC)C(=O)N1c3ccccc3C(=O)N(c3ccccc3F)C21 (stereo unspecified)
    i | -0.73 | 1.3%

A different layout for some results above:
Molecule | MT1-MMP reporter | WNV NS2B-NS3 inh | Hsc70
COc1ccc2c(c1OC)C(=O)N1c3ccccc3C(=O)N(c3ccccc3F)C21 (stereo unspecified) | i | -0.73 | 1.3%
Cc1cc2c(cc1C)NC(c1nc3ccccc3[nH]1)C1=C(CC(C)(C)CC1=O)N2 (stereo unspecified) | i | · | 3.6%
CC1CN=C(N(Cc2ccccc2)C(=O)Nc2ccccc2)S1 (stereo unspecified) | i | · | -1.8%
Cc1cccc(-c2noc(CCCC(=O)Nc3cccnc3)n2)c1 | i | 0.98 | -2.9%
CC1CCCCC1NC(=O)c1ccc(N2CCCC2=O)cc1 (stereo unspecified) | i | 1.1 | 2.6%
O=C(Nc1nnc(-c2ccc(Cl)cc2)o1)Nc1ccccc1Cl | i | · | -0.4%
O=C(C1CCCCN1S(=O)(=O)c1ccccc1)N1CCN(C(c2ccccc2)c2ccccc2)CC1 (stereo unspecified) | i | · | -0.9%

The results go on.
Screens in order – MT1-MMP reporter | WNV NS2B-NS3 inh | Hsc70
O=C1S/C(=C/c2ccc(N3CCOCC3)o2)C(=O)N1Cc1ccc(F)cc1
    i | · | -27%
O=C(CSc1nnc(-c2ccc(F)cc2)o1)Nc1ccc(S(=O)(=O)N2CCCC2)cc1
    i | 0.53 | -1.5%
CCOC(=O)C(=O)Nc1ccc(S(=O)(=O)Nc2ncccn2)cc1
    i | · | -0.7%
C=CCNC(=O)CC(C)C(CCCCC)C(=O)O (stereo unspecified)
    i | 0.53 | 3.2%
Cc1cc(C)nc(SCC(=O)Nc2ccc(S(=O)(=O)N3CCCCC3)cc2)n1
    i | · | 4.3%
COc1cc(/C=N/NC(=O)c2cccs2)ccc1OCc1ccccc1
    i | · | 2.5%
CCOC(=O)CC(=O)CSCC(=O)Nc1ccc(C)cc1
    i | -1.3 | 2.0%
Cc1nn(-c2ccccc2)c(C)c1C(=O)OCC(=O)N1CC(=O)Nc2ccccc21
    i | 1.4 | -1.4%
Cc1cccc(C)c1NC(=O)CSc1nnc(C)n1-c1ccccc1
    i | · | -0.6%
COc1ccccc1-c1cc(C(=O)NCc2ccccc2)no1
    i | -0.48 | -2.3%
Cc1ccc(-n2c(SCC(=O)NCC3CCCO3)nc3c(c2=O)SCC3)cc1 (stereo unspecified)
    i | 0.19 | 4.9%
Cc1cccc(-c2cc3nc4c(c(N5CCOCC5)n3n2)CCCC4)c1
    i | -1.6 | -0.1%
C=CCOc1cccc(C2C(C(=O)c3ccco3)=C(O)C(=O)N2Cc2ccncc2)c1 (stereo unspecified)
    i | -1.4 | -1.0%
Cn1c(=O)c2c(nc(NCc3ccccc3)n2CCCc2ccccc2)n(C)c1=O
    i | 0.15 | 0.7%
CN(C)c1ccc(C=NCCC2(O)CCOC(C)(C)C2)cc1 (stereo unspecified)
    i | 0.02 | -3.2%
CCOc1cc(Cl)c(S(=O)(=O)NCc2ccccn2)cc1Cl
    i | · | -1.5%
